VACV mCherry inh: qHTS for Stage-Specific Inhibitors of Vaccinia Orthopoxvirus: mCherry Reporter Primary qHTS. Vaccinia virus mCherry reporter infection, fluorescence; about a quarter of the inactives have no number. Potency, µM (titrated, usually from 36.5 µM), for inactives: at the highest dose activity change, negative = inhibition, most hits filed as inhibitors. actives 0.63% (n = 310,000). AID 720579, 2013; active = well fitted inhibition curve with a large enough effect; inconclusive = small, poorly fitted or top-dose-only effect; inactive = no such curve, though single readings can be large or run the other way; tested in A549 cells; note: nearly all actives have a fitted effect of over 35% in size; inactives centre near -10
VACV Venus inh: qHTS for Stage-Specific Inhibitors of Vaccinia Orthopoxvirus: Venus Reporter Primary qHTS | Potency, µM (series often up to 36.5 µM), for inactives: at the top dose activity change, negative = inhibition, usual class: inhibitors | actives 0.46% (n = 330,000) | Vaccinia virus Venus reporter expression, fluorescence; active means well fitted inhibition curve with a large enough effect; inconclusive means small, poorly fitted or top-dose-only effect; inactive means no such curve, though single readings can be large or run the other way; tested in A549 cells; note: nearly all actives have a fitted effect of over 30% in size; inactives centre near -10
* marks the source's active call; other numbers are inactive results; i = inactive; u = inconclusive; x = not tested or not shown; & = joins results of further samples; [ ] = remark or other dose. % is set by controls: 0 for no effect and ±100 for the full control effect; potency is the fitted concentration of half-maximal effect.

SMILES	VACV mCherry inh	VACV Venus inh
O=C(CSCc1ccccc1Cl)NCc1ccc(Cl)c(Cl)c1	-5.8%	-7.7%
Cc1ccc(OCC(=O)Nc2ccc3nn(-c4ccc(Cl)cc4)nc3c2)cc1	-4.0%	-8.5%
CCOC(=O)c1cnc(SC)nc1Oc1cccc(NC(=O)c2cccc(Cl)c2Cl)c1	x	-6.7%
CN(C)S(=O)(=O)c1cc(NC(=O)[C@H](Cc2ccccc2)N2C(=O)c3ccccc3C2=O)ccc1Cl	i	-1.8%
O=C1Nc2ccccc2C1=NN1CCCCCC1	-5.2%	-8.2%
O=C(OCC(=O)N1CCCC1=O)c1ccc(Cl)cc1[N+](=O)[O-]	i	-3.4%
CC(=O)Nc1ccc(NC(=O)CSc2nnc3c4cc(Br)ccc4n(C)c3n2)cc1	-5.3%	-9.4%
CCC(C(=O)NCc1ccco1)N(C(=O)CNS(=O)(=O)c1ccc(F)cc1)c1ccccc1F (stereo not drawn)	-19.5%	-7.6%
Cc1ccc(OCc2cc(C(=O)N3CCN(C)C[C@@H]3c3ccccc3)no2)cc1C	-2.8%	-17.0%
CCN(C[C@H]1N[C@@](C)(C(=O)OC)[C@H]2C(=O)N(Cc3ccccc3)C(=O)[C@@H]12)C(=O)Nc1ccc(C)cc1	i	-0.7%
CCCCCCCCC(=O)c1c(OC)oc(C=O)cc1=O	-7.0%	-7.6%
C[C@H](NC(=O)N1C[C@H]2C[C@@H](C1)c1cccc(=O)n1C2)C(=O)Nc1cccc(F)c1	-8.4%	-5.3%
CN(c1ccccc1)S(=O)(=O)c1cccc(C(=O)Nc2cccc(C(=O)NC3CC3)c2)c1	-0.2%	-19.2%
COc1cc(S(=O)(=O)Nc2ccccc2C)ccc1NC(=O)c1ccncc1	-10.6%	-2.2%
O=C(Cc1csc(-c2ccccc2)n1)NCC(=O)Nc1ccc(F)c(F)c1F	-4.5%	-3.1%
COCCNC(=S)N1CCC(NC(=O)c2ccco2)CC1	-2.4%	-3.8%
COC(=O)CSc1nc(C)c(Oc2ccccc2)c(=O)[nH]1	x	-0.9%
COCCN(C(=O)COC(=O)c1c(C)nn(-c2ccccc2)c1C)c1c(N)n(Cc2ccccc2)c(=O)[nH]c1=O	8.9%	-5.2%
CS(=O)(=O)Nc1nnc(C2CCCC2)s1	i	-11.9%
CC1(C(=O)Nc2cccc(NS(C)(=O)=O)c2)Cc2c(-c3cccc(C(N)=O)c3)ccnc2O1 (stereo not drawn)	28.1%	0.3%
O=C(CSc1nc2ccccc2c(=O)[nH]1)N1CCN(c2ccccc2F)CC1	i	-1.4%
CC(C)Cn1c(N)c(C(=O)COC(=O)c2cc(C3CC3)nc3ccccc23)c(=O)n(C)c1=O	-23.7%	u
CCOc1cccc(-c2nnc(SCC(=O)NC3CC3)n2C)c1	i	-11.4%
Cc1ccc(SCCNS(=O)(=O)c2ccc3c(c2)OCCO3)cc1	-9.6%	0.4%
O=C(CN1CCN(Cc2cccc(C(F)(F)F)c2)CC1)NCC(=O)Nc1ccc(F)c(F)c1F	-17.2%	-25.3%
O=C(Nc1ccc2c(c1)CCCN2C(=O)c1cccs1)c1ccccc1C(F)(F)F	-7.6%	-1.8%
CC(=O)c1ccc(NC(=O)Cn2c(=O)cc(C)c3c(C)nn(-c4cccc(F)c4)c32)cc1	-9.1%	-9.4%
Cc1ccc(C)c(NC(=O)CSc2nnc(CNC(=O)c3ccco3)o2)c1	i	-11.7%
COc1ccc(N2C(=O)NC3CC2(C)Oc2ccccc23)cc1OC (stereo not drawn)	x	u
Cc1cccc(C)c1NC(=O)C1(C)CSCC(=O)N1Cc1cccs1 (stereo not drawn)	-13.3%	9.4%
N#Cc1nc(-c2ccco2)oc1NCCc1ccccc1	x	-10.2%
Cc1ccc(S(=O)(=O)NCCOc2nc(N(C)C)nc(N3CCOCC3)n2)cc1	-19.4%	-10.7%
COc1ccc2c(c1)c1c(c(=O)n(-c3cc(Cl)ccc3C)c(=O)n1CC(=O)N1CCCC1)n2C	-15.5%	-4.9%
CN(Cc1ccccc1)C(=O)COC(=O)C1=NNC(=O)CC1	-7.7%	-0.9%
C=COCCn1c(=N)n(CCC)c2ccccc21	x	-25.4%
CCOc1cc(CNC(=O)c2ccc(C)c(NC(=O)c3nsc4ccccc34)c2)ccc1OC	-13.3%	-8.9%
CC(C)COc1ccc(C(=O)Nc2cc3nn(-c4ccccc4)nc3cc2Cl)cc1	-4.4%	-7.7%
Cc1cccc(N=C2NC(=O)S/C2=C\c2ccco2)c1	i	-10.9%
O=c1c2ccccc2nc(/C=C/c2ccc3c(c2)OCO3)n1-c1ccccc1	-16.3%	-12.6%
CCOc1cc(CNc2ccc3[nH]c(=O)[nH]c3c2)ccc1OCC(=O)NC(C)(C)C	-11.8%	-8.7%

7 structures already listed, ordered by SMILES length, highest first.
SMILES	VACV mCherry inh	VACV Venus inh
CC(C)Cn1c(N)c(C(=O)COC(=O)c2cc(C3CC3)nc3ccccc23)c(=O)n(C)c1=O	-23.7%	u
CCOc1cc(CNc2ccc3[nH]c(=O)[nH]c3c2)ccc1OCC(=O)NC(C)(C)C	-11.8%	-8.7%
O=C(Nc1ccc2c(c1)CCCN2C(=O)c1cccs1)c1ccccc1C(F)(F)F	-7.6%	-1.8%
Cc1ccc(S(=O)(=O)NCCOc2nc(N(C)C)nc(N3CCOCC3)n2)cc1	-19.4%	-10.7%
CCOc1cccc(-c2nnc(SCC(=O)NC3CC3)n2C)c1	i	-11.4%
N#Cc1nc(-c2ccco2)oc1NCCc1ccccc1	x	-10.2%
C=COCCn1c(=N)n(CCC)c2ccccc21	x	-25.4%

More compounds
SMILES	VACV mCherry inh	VACV Venus inh
C/C(=N\OC(=O)c1ccc(Br)cc1)c1ccccn1	-0.9%	-2.8%
CC(C)(C)Cc1c(-c2ccc(C#N)cc2)nc2c(Cl)cc(C(F)(F)F)cn12	8.6%	-9.7%
CCCc1nnc(NC(=O)C(=O)NCCN(C)C)s1	i[7.34 µM]	3.3%[7.34 µM]
COc1ccc(CCNC(=O)c2nnn(CC(=O)Nc3ccc(C)cc3C)c2N)cc1OC	i	-15.8%
COC(=O)[C@H](Cc1ccccc1)NC(=O)Nc1ccc(C)cc1	-11.2%	-2.5%
Cc1c(O)nc2ccccn2c1=O	-16.3%	-14.1%
Cc1ccc(S(=O)(=O)N2CCCC2C(=O)OCc2ccco2)cc1 (stereo not drawn)	i	-3.3%
O=C(NCCOc1ccccc1)N1[C@H]2CC[C@@H]1C=C(c1ccc(F)cc1OCc1ccccc1)C2	-10.1%	u
CCCCC(=O)N(Cc1ccc2c(c1)OCO2)Cc1nc2ccccc2c(=O)[nH]1	i	1.1%
Cc1c(C(=O)NCc2cccc([N+](=O)[O-])c2)sc(=O)n1Cc1ccc(F)cc1	19.0%	-8.3%
O=C(N/C=C/c1ccco1)OCc1ccccc1	-19.3%	7.8%
CC(C)(CNS(=O)(=O)c1ccc(Br)s1)N1CCOCC1	-22.8%	-13.5%
CCCc1[nH]nc2c1C(c1ccc(OC(=O)N3CCOCC3)cc1)C(C#N)=C(N)O2 (stereo not drawn)	-8.2%	-10.9%
COc1ccc(Cl)cc1NC(=S)NNC(=O)CC(C)C	-11.2%	-9.6%
COCC(C)NC(=O)c1cccc(Cl)c1 (stereo not drawn)	-9.8%	-7.2%
COc1ccc(-n2nc3cc(C)c(NC(=O)Cc4ccc(Cl)cc4)cc3n2)cc1	-8.3%	-10.2%
COCCCNC(=S)N1CCN(c2ccc([N+](=O)[O-])cc2)CC1	-8.8%	-10.7%
OCc1c[nH]c2ccccc12	-12.6%	-4.5%&-4.3%
COc1ccc(N2CC(C(=O)Nc3nc4ccc(OC)cc4s3)CC2=O)cc1 (stereo not drawn)	u	-26.7%
Cc1coc2c(C)c3oc(=O)c(CCC(=O)NCCc4ccc(Cl)cc4)c(C)c3cc12	-28.8%	-18.2%

Part of the list above, as comma-separated lines:
Structure,VACV mCherry inh,VACV Venus inh
O=C(NCCOc1ccccc1)N1[C@H]2CC[C@@H]1C=C(c1ccc(F)cc1OCc1ccccc1)C2,-10.1%,u
Cc1ccc(S(=O)(=O)N2CCCC2C(=O)OCc2ccco2)cc1 (stereo not drawn),i,-3.3%

Continued.
SMILES	VACV mCherry inh	VACV Venus inh
CCNC(=S)NNC(=O)Cc1ccccc1	x	-9.5%
COc1ccc(Cl)cc1NC(=O)c1cc(S(=O)(=O)N2CCCC2)cn1C	10.3%	-2.8%
CC1=C(C(=O)OC(C)C)C(c2cccs2)NC(=S)N1 (stereo not drawn)	-10.5%	-16.3%
CNC(=S)N/N=C/c1c(C)c(C(=O)c2ccc(F)cc2)n2ccccc12	u	-11.0%
CCc1ccc(NC(=O)C(=O)NCC(c2ccc3c(c2)OCO3)N2CCOCC2)cc1 (stereo not drawn)	-0.7%	-4.1%
Cc1ccc(NC(=O)CN(C)C(=O)c2ccc(Cl)nc2)cc1	i	-6.0%
CSc1nsc(/C=C/Nc2ccc(C)cc2)c1C#N	-3.8%[1.46 µM]	6.1%
O=c1ccc2cc(O)c(O)cc2o1	-14.0%	-4.6%&-8.2%
CN(C)c1cccc(NC(=O)NC2(C)CCS(=O)(=O)C2)c1 (stereo not drawn)	-3.5%	-14.1%
COc1ccc(Cn2c(=S)[nH]c3cc(C(=O)NCc4cccnc4)ccc3c2=O)cc1	-13.2%	-8.3%
O=C(CCn1nc(-c2ccc(Cl)cc2)c2ccccc2c1=O)Nc1ccc(OC(F)(F)F)cc1	-7.3%	-6.4%
COc1ccc2nc(NC(=O)CSCc3c(C)noc3C)sc2c1	-22.1%	-22.4%
Cc1cccc(NC(=O)Cc2ccc(-n3c(C)nc4cccnc43)cc2)c1C	-13.3%	-14.1%
O=S1(=O)CC(N2CCSCC2)CN1Cc1cn(Cc2ccc(C(F)(F)F)cc2)nn1 (stereo not drawn)	-5.5%	-4.5%
O=C(N/N=C/c1ccccc1)c1cc(-c2ccc3c(c2)OCO3)n[nH]1	-15.8%	-28.7%
CCCc1c(-c2ccccc2F)ncn1Cc1ccccc1OC	-20.0%	-12.8%
CCOC(=O)c1sc(NC(=O)c2nc3ncccn3n2)c(C(=O)OC)c1C	-12.6%	-6.1%
COc1cc(NS(=O)(=O)N2CCCC2)cc(OC)c1OC	i	-15.6%
COc1cccc(NC(=O)Nc2ccc3c(c2)N(C)C(=O)c2ccccc2S3)c1	-7.9%	-16.9%
CCOc1cc(N2CCOCC2)c(OCC)cc1NC(=O)c1ccc(OC)c(S(=O)(=O)N2CCOCC2)c1	-0.3%	-10.1%

Single records, as listed above.
`COc1ccc(Cn2c(=S)[nH]c3cc(C(=O)NCc4cccnc4)ccc3c2=O)cc1` is listed with VACV mCherry inh = -13.2%; VACV Venus inh = -8.3%
`O=C(N/N=C/c1ccccc1)c1cc(-c2ccc3c(c2)OCO3)n[nH]1` is listed with VACV mCherry inh = -15.8%; VACV Venus inh = -28.7%

Continuation:
SMILES	VACV mCherry inh	VACV Venus inh
OC(CN1CCOCC1)Cn1cnc2ccccc21 (stereo not drawn)	-14.8%	-5.1%
CCC(C)(C)NC(=O)CN(C(=O)CCC(=O)Nc1ccccn1)c1ccc2c(c1)OCO2	i	0.1%
CCCN1C(=O)C(Cc2nc3ccccc3c(=O)n2-c2ccc(OC)cc2)c2cc(C)ccc21 (stereo not drawn)	-21.3%	-13.5%
CCCCN(CC)C(=O)c1ccc2c(c1)OCO2	-13.8%	-5.5%
COC(=O)C1=C(C)N(c2ccc(C)c(C)c2)/C(=C/c2ccco2)C1=O	i	11.1%
CS(=O)(=O)N(Cc1ccccc1)c1ccc(C(=O)N2CCOCC2)cc1	-11.8%	-3.0%
COc1cc(C(=O)NC(=S)NCc2ccncc2)cc(OC)c1OC	i	-14.0%
Cc1ccc(/C=C(\NC(=O)c2ccc(C)cc2)C(=O)NCCCn2ccnc2)cc1	-1.2%	-22.8%
CNC(=O)c1c(NC(=O)CS(=O)(=O)c2ccc(Cl)cc2)sc(C)c1C	u	u
Cn1c(=NCC(O)COc2ccccc2)sc2ccccc21 (stereo not drawn)	x	-15.6%
CC1CCCC(C)N1CC(O)COCc1ccccc1 (stereo not drawn)	-17.3%	-16.5%
Cc1ccc(CNC(=O)CCCc2nnc3n(C)c(=O)c4sccc4n23)cc1	-7.6%	-5.9%

High-throughput results: PubChem, National Center for Advancing Translational Sciences (NCATS)
